# Compound activity from PubChem.
# AmpC inh no det: inhibitors of E. coli AmpC beta-lactamase without detergent. AID 585. AmpC nitrocefin hydrolysis, absorbance 480 nm, no detergent; potencies from a single point are estimates. 71,000 compounds, 1.8% hits. P00811. Potency, µM (series often up to 28.7 µM), without a hit: top-dose activity change, negative = inhibition; active = falling curve, for most hits resting on a single point; inconclusive = weak or doubtful change; inactive = flat or rising curve; also: % of control where 0% means no effect; about half of the hits show no inhibition at the top dose; a quarter of the inactives give rising signals
# Target sequence (P00811 whole entry, looked up): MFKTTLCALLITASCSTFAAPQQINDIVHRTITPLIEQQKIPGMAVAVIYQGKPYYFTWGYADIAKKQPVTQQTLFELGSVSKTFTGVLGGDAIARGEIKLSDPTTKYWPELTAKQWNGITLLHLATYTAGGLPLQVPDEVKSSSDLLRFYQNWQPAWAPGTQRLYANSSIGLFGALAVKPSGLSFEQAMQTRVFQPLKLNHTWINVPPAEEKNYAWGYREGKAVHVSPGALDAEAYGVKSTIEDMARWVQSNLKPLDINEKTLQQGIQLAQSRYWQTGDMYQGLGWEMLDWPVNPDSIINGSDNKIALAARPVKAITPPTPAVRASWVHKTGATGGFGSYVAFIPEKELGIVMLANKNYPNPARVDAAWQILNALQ
#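 Enzyme, pH 7.0 phosphate. Compound titrations were pre-incubated with AmpC for 15 min at room temperature before nitrocefin (stock 800 uM) addition; product formation was recorded at 480 nm every 20 s for 4 min.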
# * marks the source's active call; other numbers are inactive results; ? = inconclusive; [ ] = remark or other dose. Potency is read from the fitted curve at half-maximal effect. These rows are one share of the data; count on the stated rates, not on these rows.
entry	Molecule	AmpC inh no det
1	CC(=O)Nc1ccc(S(=O)(=O)NCCc2ccccc2)cc1	2%
2	O=C(Nc1ccc(Cl)cn1)C1CCCN1S(=O)(=O)c1ccc(Cl)cc1 (centres undefined)	-5%
3	O=C1NC(=O)c2c(NC(=O)C3CCCO3)cccc21 (centres undefined)	-4%
4	Cc1cc(C)c2nc(-c3ccccn3)cc(C(=O)Nc3cc(C)on3)c2c1	59%
5	COC1=C[C@H]2[C@@H]3Cc4ccc(OC)c(O)c4[C@@]2(CCN3C)CC1=O	-6%
6	Cc1ccccc1N=C1Nc2ccccc2CS1	?
7	CS(=O)(=O)N1CCN(c2nc(-c3ccc(F)cc3)cs2)CC1	11%
8	CC(C)Oc1cccc(C(=O)O)c1	-17%
9	Cc1c(O)c(=O)n(-c2ccccc2)n1C	1%[12.8 µM]
10	Cc1ccccc1-n1c(=O)cc(N2CCc3ccccc3C2)[nH]c1=O	12%
11	Cn1c(=O)c(-c2ccc(Cl)cc2)nc2cncnc21	2%
12	CC(C)CC(=O)Nc1ccccc1-c1nnn(CC(=O)N2CCOCC2)n1	18%
13	NC(=O)CN1CCN(C(=O)Nc2ccccc2)CC1	4µM*[single pt active]
14	NC(=O)c1c(NC(NC(=O)c2ccco2)(C(F)(F)F)C(F)(F)F)sc2c1CCCC2	15%
15	Cc1noc(C)c1COC(=O)c1ccccc1Sc1ccccc1C#N	16%
16	O=c1c(-c2cccs2)nc2cnc(Oc3ccccc3)nc2n1Cc1cccs1	-8%
17	CC(C)CNC(=O)CSc1nnc(-c2ccccn2)n1Cc1ccccc1	40%
18	CCC(=O)Oc1cccc(C(=O)Nc2ccc(-c3nnc(-c4ccco4)o3)cc2)c1	92%
19	Nc1ccc(SCCN2C(=O)c3ccccc3C2=O)cc1	0%
20	CCS(=O)(=O)CCSc1nc2ccccc2s1	-1%
21	c1cc(-c2nnc3n2CCCCC3)ccn1	-14%
22	Cc1ccc(C)n1-n1cnc2sc3c(c2c1=O)CCC3	2%
23	c1ccc(P(c2ccccc2)c2ccccc2)cc1	12%
24	COCCn1c(=O)c(-c2cccc(C#N)c2)nc2cnc(OC)nc21	6%
25	COC(=O)c1cc(C(=O)OC)n(Cc2ccc(F)cc2)n1	1%
26	Cc1nn2c(N)csc2nc1=O	-5%
27	CCCCNC(=O)c1sc2nc(C)cc(COC)c2c1-n1cccc1	82%
28	CCOC(=O)Nc1c(C(=O)OC)[nH]c2cccc(OC)c12	17%
29	Cc1[nH]nc2c1-c1nc3ccccc3nc1C(C)(C)C2	24%
30	CO[C@]1(NC(=O)C2SC(=C(C(N)=O)C(=O)O)S2)C(=O)N2C(C(=O)O)=C(CSc3nnnn3C)CS[C@H]21 (some centres undefined)	?

# Looked up by compound from the list above (3):
entry	Molecule	AmpC inh no det
22	Cc1ccc(C)n1-n1cnc2sc3c(c2c1=O)CCC3	2%
21	c1cc(-c2nnc3n2CCCCC3)ccn1	-14%
28	CCOC(=O)Nc1c(C(=O)OC)[nH]c2cccc(OC)c12	17%

# New compounds follow.
entry	Molecule	AmpC inh no det
31	CN(C)C1=NC(N(C)C)=NP(N(C)C)(N(C)C)=N1	-4%
32	COc1cccc(OCCOc2cccc(/C=N/n3cnnc3)c2)c1	53%
33	O=c1ccc2cc(O[C@@H]3O[C@@H](CO)[C@@H](O)[C@@H](O)[C@H]3O)c(O)cc2o1	0%
34	COc1ccccc1N(C(=O)Cn1nnc2ccccc21)C(C(=O)NCc1ccco1)c1ccc(C)o1 (centres undefined)	36%
35	CN(CC(=O)O)Cc1c(O)c(Cl)cc(Cl)c1Cl	-5%[5.75 µM]
36	CC(C)OC(=O)c1nnn(-c2nonc2N)c1CN1CCCCCC1	8%
37	Nc1ccc(-c2ccc(N)cc2C(F)(F)F)c(C(F)(F)F)c1	-14%
38	O=C(CN1C2=NCCCN2c2ccccc21)c1cccs1	0%
39	Cc1cccn2c(=O)c3cc(C(=O)NC(C)c4ccccc4)c(=N)n(CCCn4ccnc4)c3nc12 (centres undefined)	44%
40	CCCCN1C(=O)C2ON(c3ccccc3C)C(c3ccco3)C2C1=O (centres undefined)	19%
41	O=P(O)(O)C(Cl)(Cl)P(=O)(O)O	-10%
42	Cc1nc2ccccc2nc1N1CCCCC1	2%
43	COC(=O)c1ccccc1NC(=O)c1cc2ncc(Br)cn2n1	-2%
44	COC(=O)c1cc(Br)c(=O)n(CCc2ccccc2)c1	0%
45	CCN=C1SC(CC(=O)Nc2ccc(C)cc2)C(=O)N1CC (centres undefined)	10%
46	CN(C(=O)c1cccnc1)c1nnc(-c2cnccn2)s1	-6%
47	O=C(Nc1ccc(S(=O)(=O)N2CCCc3ccccc32)cc1)C1CCCO1 (centres undefined)	43%
48	Cc1ccc(S(=O)(=O)c2nc(N3CCOCC3)sc2Cl)cc1	67%
49	C[C@H](N)[C@H](O)c1cccc(O)c1	-13%[12.8 µM]
50	CC(NS(=O)(=O)c1ccccc1)C(=O)Nc1ccc(S(N)(=O)=O)cc1 (centres undefined)	-21%
51	CCCc1cc(=O)oc2cc(C)c(CN3CCCC3)c(O)c12	-3%
52	COc1ccc(-n2c(Cc3cccn3C)nnc2SCC(=O)NC2CCCCC2)cc1	118%
53	CCN(C(=O)CN1CCN(c2ccc(OC)cc2)CC1)c1c(N)n(Cc2ccccc2)c(=O)[nH]c1=O	10%
54	CC1=C(C(=O)OCc2ccccc2)C(c2ccc3ccccc3c2)NC(=O)N1CCCCCC(=O)O (centres undefined)	55%
55	CC(C)CC(=O)N1CCN(S(C)(=O)=O)CC1	1%
56	Nc1cc(Br)c(N)c(Br)c1	-3%
57	O=C1OCCC1Sc1nc2ccccc2s1 (centres undefined)	11%
58	Cc1ccc(C)c(-c2nc3cc(N)ccc3o2)c1	42%
59	CCOCCCNC(=O)c1cn(C)c2ccc(S(=O)(=O)N(C)C3CCCCC3)cc2c1=O	124%
60	CCC(=NCCCN(CC)CC)c1c(O)n(-c2ccccc2)c(=O)[nH]c1=O	-13%
61	CC(C)(C)c1nc(N2CCN(C(=O)c3ccco3)CC2)c2nnn(Cc3ccccc3Cl)c2n1	57%
62	O=C(NCCc1ccccc1)c1cc(-c2ccco2)on1	-6%
63	Cn1cccc1-c1nc2ccccc2n1Cc1ccccc1	15%
64	CC(=O)Oc1ccc(N2C(=O)CC(N3CCOCC3)C2=O)cc1 (centres undefined)	0%
65	CC(=O)Nc1nc2ccc(Br)cc2s1	-9%
66	COC(=O)c1cccc(NC(=O)CSc2nnc(C)n2Cc2ccccc2)c1	51%
67	Nc1cccc2c(N)cccc12	-20%
68	Brc1ccc2[nH]c3nc(SCCN4CCOCC4)nnc3c2c1	-2%
69	NC(=S)SCCC(=O)O	-6%[5.75 µM]
70	CC(C)=CCC(C)(C)C1OCCN1C(=O)Nc1ccccc1 (centres undefined)	14%
71	CCOc1cc(-c2cc(N)n[nH]2)cc(OCC)c1OCC	153%
72	Cc1ccc(-c2noc(CN(C(=O)CCCCCN3C(=O)c4ccccc4C3=O)C(C)C)n2)cc1	92%
73	O=c1[nH]c(C(F)(F)F)nc2c1nnn2Cc1ccccc1F	-18%
74	CN(C)CS/C(N)=N/[C@H](O)C(Cl)(Cl)Cl	-7%[5.75 µM]
75	O=C(CC1CCS(=O)(=O)C1)Nc1ccc[nH]c1=O (centres undefined)	-6%
76	O=C(c1noc2c1CCCC2)N1CCOCC1	-11%
77	Cc1cc(NC(=O)Nc2cc(C)nn2-c2ccccc2)n(-c2ccccc2)n1	1%
78	CC(C)(C)c1ccccc1NC(=O)c1cccnc1	3%
79	CCC(c1nnnn1Cc1ccco1)N(CCc1ccccc1)Cc1cc2cc(C)ccc2[nH]c1=O (centres undefined)	16%
80	O=C(CSc1ccc2nnc(-c3ccccn3)n2n1)NCc1ccco1	17%
81	C#CC(C)(CC)NC(=O)Cn1nnc(-c2ccc(S(C)(=O)=O)cc2)n1 (centres undefined)	5%
82	COc1ccccc1N1CCN(C(=O)C(F)F)CC1	4%
83	O=c1c(CCc2ccccc2)nc2cnc(Nc3ccccc3)nc2n1Cc1cccs1	-14%
84	N#Cc1ccsc1NC(=O)CSc1ncn[nH]1	-12%
85	O=C(NCc1cccs1)C1CCN(S(=O)(=O)c2cccs2)CC1	4%
86	CC(=O)C(C)Oc1cc(C)cc2oc(=O)c(C)c(C)c12 (centres undefined)	6%
87	C/C=C(\C)CN1CCN(c2cc(C)ccc2C)CC1	10%
88	Nn1c(SC/C=C/c2ccccc2)nnc1-c1ccccn1	12%
89	O=c1c2ccccc2nc(CSc2nnnn2-c2ccccc2)n1-c1ccccc1	-2%
90	CCOC(=O)C1CCCN(CC(=O)Nc2c(F)c(F)c(F)c(F)c2F)C1 (centres undefined)	28%

# The list continues:
entry	Molecule	AmpC inh no det
91	CN(C)c1ncc2nc(-c3cc(F)cc(F)c3)c(=O)n(CCC#N)c2n1	-6%
92	CCCCn1c(CCCNC(=O)CC)nc2ccccc21	40%
93	COC(=O)c1cccc(NC(=O)CN(c2ccc3c(c2)OCO3)S(C)(=O)=O)c1C	2%
94	CC(C)n1c(SCC(=O)N2CCCc3ccccc32)nc2c1c(=O)n(C)c(=O)n2C	11%
95	CCOC(=O)N1CCC(NC(=O)Cc2ccc(-n3c(=O)[nH]c4ccccc4c3=O)cc2)CC1	16%
96	Cc1ccc(C(=O)C2CCN(CC(=O)Nc3ccc(N(C)C)cc3)CC2)cc1	75%
97	Cc1ccccc1NC(=O)CSc1nc(N)c(C#N)c(-c2cccs2)c1C#N	10µM*
98	Cc1ccc(S(=O)(=O)N(C)CC(=O)Nc2nc3ccccc3s2)cc1	-1%
99	COc1ccc(-n2nnnc2SCC(=O)NCCc2ccc(OC)c(OC)c2)cc1	26%
100	CCCn1c(-c2ccc(F)cc2)nc2c(NCCCCN3CCCC3)nc(C)nc21	56%
101	O=C(Cc1coc2ccc3ccccc3c12)N1CCCC1	36%
102	COC(=O)c1cc2c(s1)=NC=NP=2(N1CCOCC1)N1CCOCC1	3%
103	CC(C)OCCCn1c(=S)[nH]c2ncccc2c1=O	-2%
104	CC(=O)c1ccc(NC(=O)CSc2nnc(-c3ccoc3C)n2Cc2ccccc2)cc1	-11%
105	Cc1cc(OCc2nn[nH]n2)c2c(C)c(Cc3ccccc3)c(=O)oc2c1	-12%
106	CCN(CC)Cc1cc(CC(C(N)=O)C(N)=O)ccc1OC	4%
107	Cc1nc2ccccc2cc1C(=O)NCc1ccco1	18%
108	Cc1ccc(C(=O)CS(C)(=O)=O)cc1	-1%
109	COc1ccc(-c2nc(SC)n(C)c(=O)c2C#N)cc1OC	41%
110	COc1ccccc1OCCn1cc(C(=O)c2ccco2)c2ccccc21	6%
111	O=C1Cn2c(nc3ccccc32)N1c1ccccc1F	3%
112	N#Cc1nc(-c2ccco2)oc1N1CCN(c2ccccc2)CC1	11%
113	CC(C)(C)C1CCc2onc(C(=O)Nc3cccnc3)c2C1 (centres undefined)	59%
114	COC(=O)CCC(=O)Nc1sc2c(c1C#N)CCCC2	25%
115	COC(=O)C1=C(C)OC(N)=C(C#N)C1c1ccccc1F (centres undefined)	2%
116	Cn1c(=O)oc2cc(S(=O)(=O)N3CCN(Cc4ccc5c(c4)OCO5)CC3)ccc21	69%
117	CCc1ccc2c(c1)[C@]1(C(=O)N2)[C@@H]2C(=O)N(Cc3ccccc3)C(=O)[C@@H]2[C@@H]2CCCN21	70%
118	Cc1cc(=O)c2ccccc2[nH]1	-10%
119	CCCC1(C(=O)O)NC(c2cccc(OC)c2O)C2C(=O)N(c3ccccc3)C(=O)C21 (centres undefined)	-4%
120	CC1CCN(c2nc(-c3ccncc3)nc3ccccc23)CC1	42%

# Two entries from above, with each value named:
116) Cn1c(=O)oc2cc(S(=O)(=O)N3CCN(Cc4ccc5c(c4)OCO5)CC3)ccc21
  AmpC inh no det: 69%
117) CCc1ccc2c(c1)[C@]1(C(=O)N2)[C@@H]2C(=O)N(Cc3ccccc3)C(=O)[C@@H]2[C@@H]2CCCN21
  AmpC inh no det: 70%

# The list goes on.
entry	Molecule	AmpC inh no det
121	O=C(CNCC1CCCO1)Nc1ccccc1-n1cccc1 (centres undefined)	1%
122	N[C@@H](Cn1cc(I)c(=O)[nH]c1=O)C(=O)O	30%
123	COCCNCC(=O)NC12CC3CC(CC(C3)C1)C2	11%
124	COc1cc(N=c2ssnc2Cl)cc(OC)c1OC	2%
125	COCCNc1ncnc2ccc(-c3ccc(N(C)C)cc3)cc12	78%
126	Cc1cc(C)c(S(=O)(=O)Nc2cccc3nsnc23)c(C)c1	-4%
127	Cc1ccc(C(=O)CCNc2ccc(Br)cc2)o1	6%
128	CCn1c(=O)c(=O)n(CC)c2cc(S(=O)(=O)Nc3cccc(OC)c3)ccc21	1%
129	Cc1cc(C)n(-c2ccc(C(=O)Nc3ccccc3N3CCOCC3)cc2)n1	90%
130	CC1CCN(CC(=O)Nc2sc3c(c2C#N)CCC3)CC1	14%
131	Cc1ccc(-c2cc3nc(C)cc(NCc4ccco4)n3n2)cc1	83%
132	N#Cc1ccccc1CSc1ccccn1	-4%
133	C1=C(c2c[nH]c3ccccc23)CCNC1	-2%
134	CC1CCN(C(=O)N[C@@H](Cc2ccccc2)C(=O)O)CC1	-11%
135	CCC(C)(C)n1nnnc1C(C(C)C)N(CCCO)Cc1cc2cc(C)ccc2[nH]c1=O (centres undefined)	93%
136	CN(C)P1(N(C)C)=Nc2c(c(N)nn2C)C(c2ccccc2)=N1	11%
137	CCCn1c(NC(=O)c2cccc(S(=O)(=O)N3CCCC3)c2)nc2ccccc21	39%
138	C=CCn1c(COc2ccc(Cl)cc2)nnc1SCc1ccc(C#N)cc1	63%

# Along the list, as entered above:
# Compounds 131–138 in AmpC inh no det read 83%, -4%, -2%, -11%, 93%, 11%, 39%, 63%
